High-throughput results deposited in PubChem BioAssay by several laboratories.
Bead autofluor: compound fluorescence in toxin protease inhibitor counterscreen. 360,000 tested, 3.1% active. fluorescence intensity (no concentration beside the values). compound autofluorescence counterscreen, microsphere flow cytometry; hits give high values. AID 624483;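 active = at least 3 SD above the mean of all compounds, about 16000 in these data; inconclusive = too few beads counted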;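 note: 100 nL of 1 mM stock went into each well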
Sa RN4220 lethal: kills Staphylococcus aureus RN4220. 330,000 tested, 0.33% active. S. aureus RN4220 growth, OD600, 16 h. inhibition, % (concentration not given with the values);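 active = z-score of -3 or lower and OD600 up to 0.18 on both plates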;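 note: plate controls were untreated cells for no effect and reference antibiotic for full effect; stock transfer was 100 nL into about 80 µL; one replicate is shown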
Sa ugtP lethal: compounds lethal to S. aureus RN4220 ugtP deletion mutant; growth inhibition, % (test concentration not listed); 330,000 tested, 0.54% active; OD600 growth, 16 h; some inactives read as strong as hits;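 active = z-score under -3 and OD600 up to 0.15 on both plates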;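 note: plate controls were untreated wells for no effect and antibiotic for full effect; wells of about 80 µL received 100 nL stock; the first replicate is given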
Mtb hypoxia rep: Mtb hypoxia fluorescent reporter inhibition | M. tuberculosis hypoxia-regulated fluorescent reporter, fluorescence | fluorescence inhibition, % (concentration not given with the values) | 300,000 tested, 0.1% active | AID 1159583;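 active = 35 to 45% if threefold the growth effect, above 45% if 1.5-fold the growth effect; inactive = the rest, general growth blockers included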;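 note: wells of about 50 µL received 100 nL stock; 0% = vehicle wells and 100% = reference inhibitor wells; whole bacteria with a GFP reporter of the hypoxia response; strong numbers were not always called active; many hits fall short of the cut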
BJeLR lethal: BJeLR cell viability loss. BJeLR (HRASV12) viability, CellTiter-Glo ATP luminescence, 48 h; reference of the scale not given here. inhibition, % (no concentration beside the values). 300,000 tested, 0.17% active. AID 1554;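 active = replicate mean above 50%; inconclusive = above 50% but judged a plate artefact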;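 note: 50 nL library stock added to about 25 µL; numbers are from one replicate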
PrP 5UTR inh: inhibition of PrP 5' UTR reporter expression | inhibition, % (concentration not given with the values) | 340,000 tested, 0.35% active | cell-based PrP 5' UTR mRNA reporter, plate reader;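 active = every replicate at 50% or more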;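 note: 0 = median of the neutral control wells; tested in H4 reporter cells; numbers are from one replicate; inactives centre near -14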
Mtb hypoxia rep growth: also measured in Mtb hypoxia rep; calls as there; growth inhibition, %; measured here: M. tuberculosis growth (absorbance);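 0% = vehicle and 100% = reference antibiotic; read after six days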
The depositor's hits bear a star; ? = inconclusive; / = not tested or not shown. Not a hit list; about 4% have a hit in one of these screens.

Compound	Bead autofluor	Sa RN4220 lethal	Sa ugtP lethal	Mtb hypoxia rep	Mtb hypoxia rep growth	BJeLR lethal	PrP 5UTR inh
CCOCc1c(C(=O)N2CCN(CC(=O)Nc3ccc(F)cc3)CC2)oc2ccccc12	5130	1.2	0	2	-5	/	-12
COc1cccc2[nH]c(C(=O)NCCc3ccccc3)cc12	4039	1.0	3	9	13	-1	-33
O=S(=O)(c1ccc(Cl)s1)N1CCN(C/C=C/c2ccccc2)CC1	/	-1.6	24	3	2	-5	-15
CCCC(=O)C1=C(O)C(C(=O)OC)C(C)(C)CC1=NCCc1ccc(OC)c(OC)c1 (configuration not stated)	4838	-2.0	0	1	8	2	-5
CCCCn1c(N)c(N(CCC(C)C)C(=O)CC2CCCCC2)c(=O)[nH]c1=O	?	2.2	2	0	15	-3	6
COC(=O)C1CCN(c2cc(Cl)nc(N)n2)CC1	4373	4.8	5	-1	7	4	-12
COc1cccc(CN2CCNC(=O)C2CC(=O)N(C)C2CCOCC2)c1 (configuration not stated)	4603	6.2	12	7	-2	8	-1
CCOc1ccccc1NC(=O)c1ccc(S(=O)(=O)N2CCOCC2)cc1	3062	3.0	-3	-2	-4	-3	-21

Some values from the entries so far:
Entry for `CCCCn1c(N)c(N(CCC(C)C)C(=O)CC2CCCCC2)c(=O)[nH]c1=O` in PrP 5UTR inh: 6
Entry for `CCCC(=O)C1=C(O)C(C(=O)OC)C(C)(C)CC1=NCCc1ccc(OC)c(OC)c1` (configuration not stated) in BJeLR lethal: 2
Entry for `O=S(=O)(c1ccc(Cl)s1)N1CCN(C/C=C/c2ccccc2)CC1` in BJeLR lethal: -5
Entry for `COC(=O)C1CCN(c2cc(Cl)nc(N)n2)CC1` in Mtb hypoxia rep: -1

In the list so far, 2 contain four or more nitrogen atoms:
Compound	Bead autofluor	Sa RN4220 lethal	Sa ugtP lethal	Mtb hypoxia rep	Mtb hypoxia rep growth	BJeLR lethal	PrP 5UTR inh
CCCCn1c(N)c(N(CCC(C)C)C(=O)CC2CCCCC2)c(=O)[nH]c1=O	?	2.2	2	0	15	-3	6
COC(=O)C1CCN(c2cc(Cl)nc(N)n2)CC1	4373	4.8	5	-1	7	4	-12

(next part)
Compound	Bead autofluor	Sa RN4220 lethal	Sa ugtP lethal	Mtb hypoxia rep	Mtb hypoxia rep growth	BJeLR lethal	PrP 5UTR inh
O=C(O)COc1ccc(/C=N/NC(=O)C2CCCN2S(=O)(=O)c2ccc(Cl)cc2)cc1 (configuration not stated)	2505	/	/	/	/	11	-14
O=Cc1c[nH]c2ccc(S(=O)(=O)N3CCOCC3)cc12	2255	-5.2	-2	0	2	-3	-14
COc1ccc(C=O)cc1COc1ccccc1F	2067	9.4	10	10	1	1	-19
COc1ccc(NC(=O)CN(C)C(=O)c2cc3c(s2)CCC(C)C3)cc1 (configuration not stated)	6129	2.2	1	-2	11	6	-9
CCc1ccc(N2CC(C(=O)N3CCN(c4ccccn4)CC3)CC2=O)cc1 (configuration not stated)	4476	4.1	1	9	4	-5	-7
COC1CCCCC1NS(=O)(=O)c1ccc(Cl)cc1 (configuration not stated)	5864	3.7	10	6	6	-7	-14
O=C(Nc1ccc(F)cc1F)c1ccc2c(c1)OCCO2	5315	5.2	4	-1	7	6	-14
CCOC(=O)C(NCc1ccccc1)(NC(=O)c1ccccc1)C(F)(F)F (configuration not stated)	3132	0.6	1	/	/	-2	-4
COc1cccc(N=C2NC(=O)/C(=C/c3cc([N+](=O)[O-])ccc3O)S2)c1	3703	/	/	/	/	6	-11
COc1ccc(-c2nnc(NC(=O)CSc3ccc(Cl)cc3)s2)cc1OC	2302	/	/	/	/	-2	-2
CC(O)[C@H]1CN=C(N)N1CC(C)(C)C (some centres not stated)	4058	/	/	/	/	-6	-21
COC(=O)C(C)Sc1ccc2nnc(CCNS(=O)(=O)c3ccc(C)cc3)n2n1 (configuration not stated)	4690	6.1	18	10	5	0	-32
COc1ccc(OC)c(C(c2nnnn2CC2CCCO2)N2CCN(C3CCCC3)CC2)c1 (configuration not stated)	4925	1.4	10	/	/	2	-9
Cc1ccc(S(=O)(=O)NC(=O)Nc2c(C)cccc2C)cc1	3669	3.8	6	-13	3	-2	-26
COc1ccc(S(=O)(=O)n2ccc(C)n2)cc1C	10860	6.6	-5	3	6	-5	-10
CCCCN(C(=O)CSc1nnc(-c2ccc(OC)cc2)n1C(C)C)c1c(N)n(Cc2ccccc2)c(=O)[nH]c1=O	2544	7.8	15	-7	-7	-12	-2
O=C(CNC(=O)Cc1ccccc1)NCC(=O)OCC(=O)c1ccc(F)cc1	4720	3.8	5	15	4	4	-2
O=C(NCC(c1ccco1)N1CCc2ccccc21)c1ccccc1Br (configuration not stated)	?	9.4	11	9	9	-3	-13
COc1cc(CNc2ccc(CNc3ncn[nH]3)cc2)ccc1OCc1ccccc1	2523	3.3	26	1	5	-1	-22
Nc1nc(SCC(=O)Nc2ccccc2Sc2ccc(Cl)cc2)n[nH]1	4184	3.4	7	12	14	3	-30
Cc1ccc(C(=O)OCC(=O)NCc2ccco2)s1	2510	2.9	-5	11	-3	0	-19
CC(C)Oc1ccc(CN2CCCC(CO)(Cc3ccccc3)C2)cc1CO (configuration not stated)	5161	2.1	6	0	8	-2	7
COC(=O)C1=C2SC(C)C(=O)N2C(N)=C(C#N)C1c1cc(OC)c(OC)c(OC)c1 (configuration not stated)	3449	4.5	0	8	1	-5	-16
O=C(/C=C/c1ccccc1)OCc1cncs1	4339	3.2	-4	-1	9	0	-28
Cc1cccc(-c2nc(CN3CCN(Cc4cccc(F)c4)CC3)c(C)o2)c1	4915	5.3	22	3	2	-5	-18
COC(=O)COc1ccccc1/C=C1/NC(=O)NC1=O	2529	3.6	3	-1	5	14	-17
CC(=O)N1CCN(CC(=O)Nc2ccc(SC(F)F)cc2)CC1	1935	4.7	-3	3	1	0	-6
CC1(C)c2ccccc2N2CC(=O)N[C@@]21/C=C/C=C/c1ccccc1	/	5.0	-10	15	11	-5	-15
S=c1[nH]nc(Cc2cccs2)n1-c1ccccc1	12983	2.0	1	1	5	3	-12
Cc1ccc(CSc2nc3c(c(=O)[nH]c(=O)n3C)n2CCC(C)C)cc1	4778	8.7	-2	5	4	-10	-14
COc1ccccc1N1CCN(C(=O)CNC(=O)c2ccc(Cl)cc2Cl)CC1	5373	0.3	1	0	1	-6	-12
Cc1ccccc1C(=O)NCC(=O)OC(C)C(=O)NC(C)CCc1ccccc1 (configuration not stated)	8897	4.0	3	0	-6	/	-35
COc1ccc(-c2cncnc2-c2ccc(OC)cc2O)cc1	3591	-1.0	5	-2	3	5	15
CC(C)CC1NC(=O)N(CC(=O)NC2CCCc3ccccc32)C1=O (configuration not stated)	7605	4.5	7	16	5	0	-11
CCN(CC)S(=O)(=O)c1ccc(N(C)Cc2cccc(OC)c2OC)nc1	4233	10	3	6	4	-5	-17
Cc1c(CCOC(=O)CC23CC4CC(CC(C4)C2)C3)sc[n+]1Cc1ccccc1	3912	87	100*	8	18	7	-5
CCCCN(C(=O)c1ccc2c(c1)OCO2)c1c(N)n(CCCC)c(=O)[nH]c1=O	4804	2.6	11	4	3	2	-22
CCC(=O)N1CCN(c2ccc(NC(=O)COc3ccc(C)cc3C)cc2)CC1	5702	1.1	-6	12	2	2	-5
CCN(C(=O)COC(=O)c1c(C)nsc1NC)c1ccccc1	3941	2.3	2	9	15	/	-4
O=C(c1ccccn1)N(Cc1ccco1)C1(C(=O)NC2CCCC2)CCCCC1	6378	0.5	-2	-91	-21	6	-16
CCOC(=O)C(=NNc1ccccc1Cl)N1CCN(C)CC1	/	1.4	4	10	2	/	/
O=C(COC(=O)c1c2c(nc3ccccc13)/C(=C/c1cccc([N+](=O)[O-])c1)CCC2)NC1CCS(=O)(=O)C1 (configuration not stated)	1989	-8.3	-15	-6	4	-9	-22
Cc1cccc(OCCNc2nc3c(c(=O)n(C)c(=O)n3C)n2C)c1	2902	2.9	4	/	/	8	-21
Cc1ccc(Cl)c(OCC(O)CN(CCO)CCO)c1 (configuration not stated)	3817	8.0	3	/	/	2	-1
NC(=O)c1ccc(-n2c(CCC(=O)O)ccc2-c2cccs2)cc1	2948	2.1	11	7	11	-1	-14
COc1ccc(-n2nc3c(c2NC(=O)c2c(F)cccc2Cl)CS(=O)C3)cc1 (configuration not stated)	4356	4.9	11	11	7	-2	-2
CCc1cc2c(=O)c(-c3nc4ccccc4n3C)coc2c(CN2CCCCC2)c1O	4081	0.7	2	-7	5	10	-6
CCOC(=O)c1sc(Nc2ccc(Br)cc2)nc1C	4017	-8.0	-17	11	5	3	-45
Nc1cc(=O)[nH]c(SCC(=O)Nc2ccc(Oc3ccccc3)cc2)n1	5515	2.5	2	-3	9	7	-24
CCCCC1C2=C(CCCC2=O)OC2=C1C(=O)CCC2	2447	3.0	9	6	0	-11	-18
COC(=O)CCC(=O)NNC(=O)c1ccc(Cl)cc1Cl	10553	1.6	3	-6	3	13	-11
Cc1ccnc(NC(=O)c2cc(S(=O)(=O)NCc3ccccc3)ccc2C)c1	4034	7.2	0	6	-1	/	-26
Cc1ccc2nc3c(cc(C(=O)NCc4ccccc4)c(=N)n3CCCn3ccnc3)c(=O)n2c1	5416	-4.5	-8	12	21	/	-11
O=C(Nc1ccc2oc(=O)c(C(=O)O)cc2c1)Oc1ccccc1	3338	1.2	0	8	3	/	-14
CCN(c1ccccc1)S(=O)(=O)c1cc(C(=O)OC2CCOC2=O)ccc1C (configuration not stated)	?	6.3	4	6	8	/	/
Cc1ccc(CS(=O)Cc2ccc(C(=O)N3CCOCC3)o2)cc1 (configuration not stated)	5420	3.2	0	1	5	-1	-42

More entries:
Compound	Bead autofluor	Sa RN4220 lethal	Sa ugtP lethal	Mtb hypoxia rep	Mtb hypoxia rep growth	BJeLR lethal	PrP 5UTR inh
CS(=O)(=O)N(CC(=O)N1CCN(c2cccc(Cl)c2)CC1)c1ccccc1	9910	4.3	-1	9	7	-5	-23
O=C(c1ccc(C23CC4CC(CC(C4)C2)C3)o1)N1CCOCC1	4380	6.9	13	11	14	-3	-11
CC(NC(=O)COC(=O)c1cc(Cl)nc(Cl)c1)c1ccccc1 (configuration not stated)	4272	0.2	6	-3	12	-13	-14
CCc1ccccc1NC(=O)CN(C)C(=O)CN1C(=O)NC2(CCCCCC2)C1=O	10847	3.7	2	3	-4	0	1
Cc1ccc(C(=O)NCCc2nnc3ccc(SCC(=O)NCc4ccc(F)cc4)nn23)cc1	5247	3.7	2	-6	-13	2	-22
Cc1cc(C)cc(N(C(=O)Cc2cccs2)C(C(=O)NC2CCCC2)c2ccc(C)o2)c1 (configuration not stated)	8313	4.7	4	4	9	1	-44
CCOc1ccc(CNCc2cccnc2)cc1	9206	5.6	7	12	1	7	-17
COc1ccc([C@H]2[C@@H]3C=CCC[C@@]3(C)C(=O)N2Cc2ccccc2)cc1Cl	4035	/	/	/	/	-2	0
